Source: PubChem
VCAM-1 down imaging = suppression of endothelial VCAM-1 upregulation – imaging, high-content imaging, pooled HUVEC, TNFa stimulus (AID 456). 0.2% of 10,000 active. HUVEC TNFa-induced VCAM-1 surface expression, immunofluorescence imaging; numbers were filed only for top-ranked candidate wells. one-dose inhibition, % at 5 µM; IC50 in µM for titrated hits;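 active = top tenth filtered wells with inhibition above zero that passed visual or statistical confirmation; inactive = the rest, including hits rejected on review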;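 also: 0% = stimulated vehicle wells and 100% = unstimulated cells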
VCAM-1 up imaging = boosters of cytokine-driven VCAM-1 levels – imaging, high-content imaging, pooled HUVEC, TNFa stimulus (AID 457); 0.2% of 10,000 active; calls only; Pooled HUVEC, TNFa-induced VCAM-1 immunofluorescence imaging; hits of this screen are not shown here;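 active = a top-ranked rise in VCAM-1 staining upheld on image or statistical review; inactive = the rest, including candidates rejected on review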;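 also: compounds tested at 5 µM in the well; cells exposed to compound for 24 hours before fixing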
FPR binder = binds the human formylpeptide receptor FPR | P21462 | FPR-expressing cells, fluorescent ligand binding, flow cytometry | inhibition, %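 (tested at 6.7 µM)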 | 0.74% of 24,000 active | AID 440;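 also: 0% = buffer wells and 100% = receptor blocker peptide wells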
Target sequence (P21462 whole entry, looked up): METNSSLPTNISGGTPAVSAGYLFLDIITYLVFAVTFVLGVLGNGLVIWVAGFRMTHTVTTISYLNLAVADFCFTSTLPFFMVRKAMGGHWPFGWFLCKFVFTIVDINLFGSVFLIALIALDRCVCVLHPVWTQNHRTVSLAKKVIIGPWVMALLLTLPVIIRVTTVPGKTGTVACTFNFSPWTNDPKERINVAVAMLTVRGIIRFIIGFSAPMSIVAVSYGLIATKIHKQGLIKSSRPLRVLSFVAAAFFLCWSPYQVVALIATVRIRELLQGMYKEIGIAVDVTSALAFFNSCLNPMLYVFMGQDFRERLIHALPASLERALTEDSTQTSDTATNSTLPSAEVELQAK
VCAM-1 inhibition = inhibitors of TNFa-induced VCAM-1 surface display, cell-based, plate reader, pooled HUVEC, TNFa stimulus (AID 454); HUVEC TNFa-induced VCAM-1 surface immunofluorescence, plate reader; numbers were filed only for top-ranked candidate wells; inhibition, % at 5 µM; 0.2% of 10,000 active;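 active = compound among top-ranked inhibitors of TNF-induced VCAM-1 adhesion protein staining, with the hit upheld by image or statistical review; inactive = the rest, including hits rejected on review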;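 also: 0% = TNFa with vehicle and 100% = cells without TNFa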
FPRL1 binder = binds the human formylpeptide receptor-like-1 FPRL1 | FPRL1-expressing cells, fluorescent ligand binding inhibition, flow cytometry | inhibition, %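 (tested at 6.7 µM)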 | AID 441 | P25090 | 0.3% of 24,000 active;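 also: 0% = buffer alone and 100% = receptor blocker peptide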
Target sequence (P25090 whole entry, looked up): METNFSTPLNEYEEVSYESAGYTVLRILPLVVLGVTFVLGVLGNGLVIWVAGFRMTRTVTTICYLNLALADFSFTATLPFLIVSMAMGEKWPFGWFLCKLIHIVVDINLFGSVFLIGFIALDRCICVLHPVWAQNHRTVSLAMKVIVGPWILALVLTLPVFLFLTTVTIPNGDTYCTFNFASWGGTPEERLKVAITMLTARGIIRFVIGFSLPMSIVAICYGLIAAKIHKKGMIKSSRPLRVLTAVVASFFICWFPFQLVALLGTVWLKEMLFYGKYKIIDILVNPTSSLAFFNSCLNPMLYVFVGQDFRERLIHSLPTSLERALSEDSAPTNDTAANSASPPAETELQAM
The depositor's hits bear a star; i = inactive; . = not tested or not shown.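 The calls were made as follows, unless noted: active = mean above 30%; inconclusive = self-fluorescent; inactive = the rest.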 Not all compounds are listed; rates above refer to the full screens.

no.	molecule	VCAM-1 down imaging	VCAM-1 up imaging	FPR binder
1	O=C(CSc1nnc(-c2cccnc2)o1)Nc1ccccn1	i	i	-3
2	Cc1cccc(CCNC(=O)CCc2nc(-c3ccccc3F)no2)c1	i	i	4
3	CSc1nnc(Cn2c(=O)sc3ccccc32)n1CCc1ccccc1	.	.	-6
4	CCn1c(=O)cc(SCC(=O)Nc2ccc3c(c2)OCO3)c2ccccc21	i	i	-6
5	COc1cccc(-c2noc(N)c2C#N)c1	.	.	-6
6	CCOC(=O)C1CCN(c2c(NCCCN(C)C3CCCCC3)c(=O)c2=O)CC1	.	.	1
7	COc1cccc(C2/C(=C(/O)c3cnn(-c4ccccc4)c3C)C(=O)C(=O)N2CCN(C)C)c1OC (stereo unspecified)	.	.	-6
8	Cc1cccc(N2CCN(C(=O)c3ccc(N4CCCC4=O)cc3)CC2C)c1 (stereo unspecified)	.	.	3

no.	VCAM-1 inhibition	FPRL1 binder
1	i	3
2	i	-1
3	.	-8
4	i	2
5	.	-5
6	.	-2
7	.	-1
8	.	4

More results follow:
no.	molecule	VCAM-1 down imaging	VCAM-1 up imaging	FPR binder
9	O=C(CSc1nc(O)c(Cc2ccccc2)c(=O)[nH]1)Nc1ccccc1	i	i	26
10	CC1(C)CNC(=O)c2sc(N3CCOCC3)nc2C1	i	i	6
11	O/N=C1\CC/C(=N\O)c2nn(-c3ccc(Cl)cc3Cl)nc21	.	.	0
12	CCN1CCN(c2ncnc3sc(C(=O)Nc4ccccc4F)c(C)c23)CC1	.	.	-5
13	N/C(=N/O)c1nc(N2CCCCC2)nc(N2CCCCC2)n1	i	i	4
14	CC1CC(C)CN(C(=O)CSc2nnc(-c3ccc(Cl)cc3)o2)C1 (stereo unspecified)	.	.	-1
15	CCN(C(=O)c1ccnc(C(C)(C)C)c1)c1ccccc1	i	i	-5
16	CCOC(=O)C(C)n1nc(C)c2sc3ccccc3c2c1=O (stereo unspecified)	.	.	8

no.	VCAM-1 inhibition	FPRL1 binder
9	i	-4
10	i	0
11	.	7
12	.	0
13	i	2
14	.	-3
15	i	-1
16	.	3

(further entries)
no.	molecule	VCAM-1 down imaging	VCAM-1 up imaging	FPR binder
17	Cc1ccc(C)c(N2CCN(S(=O)(=O)c3ccc4c(c3)OCCO4)CC2)c1	i	i	21
18	CC(C)NC(=O)c1cc(-c2ccco2)on1	.	.	-1
19	CCN(CC)S(=O)(=O)c1ccc(C(=O)Oc2ccc3c(c2)OCO3)cc1	i	i	-3
20	O=C(CCn1cccc1)Nc1cccc(F)c1	.	.	-2
21	O=C(Cn1cnc2c(cnn2-c2ccccc2)c1=O)NCCc1ccccc1	i	i	4
22	Cc1cccc(-c2nc(CS(=O)CC(=O)NC3CCCC3)c(C)o2)c1 (stereo unspecified)	.	.	8
23	CC(=O)N(CCN(C(C)=O)c1ccccc1)c1ccccc1	i	i	0
24	O=C(CCn1c(=O)[nH]c2ccccc2c1=O)Nc1ccccc1	.	.	-4

no.	VCAM-1 inhibition	FPRL1 binder
17	i	12
18	.	2
19	i	-3
20	.	2
21	i	1
22	.	3
23	i	6
24	.	-1

(more compounds)
no.	molecule	VCAM-1 down imaging	VCAM-1 up imaging	FPR binder
25	COc1ccccc1NC(=O)N1CCN(c2cccc(C(F)(F)F)c2)CC1	i	i	-5
26	Brc1ccc2c(c1)c1nc3ccccc3nc1n2CCN1CCOCC1	.	.	-3
27	CCOC(=O)N1CCN(C(=O)c2oc3ccc(S(=O)(=O)N4CC(C)CC(C)C4)cc3c2C)CC1 (stereo unspecified)	.	.	-1
28	COC(=O)C(C)C1Sc2ccccc2NC1=O (stereo unspecified)	i	i	2
29	Cn1c(=O)c2c(nc(SCCCC#N)n2Cc2ccccc2F)n(C)c1=O	i	i	4
30	Cc1ccc(S(=O)(=O)N2CCOCC2)cc1C(=O)Nc1ccccn1	i	i	-2
31	Cn1c(=O)n(C)c2cc(CNc3ccc(N4CCOCC4)c(C(=O)O)c3)ccc21	i	i	0
32	Cc1cc(C)n2nc(SCC(=O)Nc3ccc(F)cc3)nc2n1	.	.	-1

no.	VCAM-1 inhibition	FPRL1 binder
25	i	3
26	.	0
27	.	-5
28	i	-2
29	i	0
30	i	3
31	i	13
32	.	-2

Additional records follow:
no.	molecule	VCAM-1 down imaging	VCAM-1 up imaging	FPR binder
33	COCCCNC(=O)CS(=O)Cc1nc(-c2ccccc2C)oc1C (stereo unspecified)	.	.	-7
34	CCOC(=O)C1CCN(S(=O)(=O)c2cnc[nH]2)CC1	.	.	2
35	CC(C)COc1ccc(C(=O)OCCN2CCOCC2)cc1	i	i	-4
36	Cn1c(CNc2ccccc2O)nc2ccccc21	.	.	-4
37	CCOC(=O)C1=C(C)N=C2SCCC(=O)N2C1c1cc(Br)ccc1OC (stereo unspecified)	i	i	1
38	O=C1c2cccnc2C(O)N1Cc1ccco1 (stereo unspecified)	.	.	-2
39	O=C(NCc1ccccc1)c1cc(S(=O)(=O)N2CCC3(CC2)OCCO3)ccc1F	.	.	-2
40	CCN(CC)CCN1C(=O)C(=O)/C(=C(/O)c2c(C)[nH]c(C(=O)OC)c2C)C1c1ccccc1OC (stereo unspecified)	i	i	6

no.	VCAM-1 inhibition	FPRL1 binder
33	.	1
34	.	1
35	i	5
36	.	-6
37	i	-5
38	.	12
39	.	4
40	i	0

Other compounds:
no.	molecule	VCAM-1 down imaging	VCAM-1 up imaging	FPR binder
41	Cn1c(=O)n(CCc2ccccc2)c(=O)c2c1nc1n2CCN1c1ccccc1	.	.	-4
42	Cc1ccc(Cn2nnc3c(=O)[nH]c(C4CCN(S(=O)(=O)c5ccc(F)cc5)CC4)nc32)cc1	i	i	-2
43	CC(=O)NC(C)C(c1cccs1)N1CCN(c2ccccc2)CC1 (stereo unspecified)	.	.	3
44	O=C(CSc1nnc(-c2ccco2)c(-c2ccco2)n1)Nc1ccccc1	i	i	-8
45	CCCCCC1CC(CC(C)C(=O)Nc2nncs2)C(=O)O1 (stereo unspecified)	i	i	2
46	Cc1cccc(NC(=O)CSc2nnc(NC(=O)CN3CCOCC3)s2)c1	.	.	4
47	O=C(Nc1cccc(-c2nc3cccnc3s2)c1)c1ccco1	.	.	0
48	CCn1nnnc1SCC(=O)Nc1nnc(C(C)C)s1	i	i	4

no.	VCAM-1 inhibition	FPRL1 binder
41	.	-1
42	i	10
43	.	-3
44	i	2
45	i	-5
46	.	9
47	.	-4
48	i	3

Compounds shown so far with a halogen:
no.	molecule	VCAM-1 down imaging	VCAM-1 up imaging	FPR binder
2	Cc1cccc(CCNC(=O)CCc2nc(-c3ccccc3F)no2)c1	i	i	4
11	O/N=C1\CC/C(=N\O)c2nn(-c3ccc(Cl)cc3Cl)nc21	.	.	0
12	CCN1CCN(c2ncnc3sc(C(=O)Nc4ccccc4F)c(C)c23)CC1	.	.	-5
14	CC1CC(C)CN(C(=O)CSc2nnc(-c3ccc(Cl)cc3)o2)C1 (stereo unspecified)	.	.	-1
20	O=C(CCn1cccc1)Nc1cccc(F)c1	.	.	-2
25	COc1ccccc1NC(=O)N1CCN(c2cccc(C(F)(F)F)c2)CC1	i	i	-5
26	Brc1ccc2c(c1)c1nc3ccccc3nc1n2CCN1CCOCC1	.	.	-3
29	Cn1c(=O)c2c(nc(SCCCC#N)n2Cc2ccccc2F)n(C)c1=O	i	i	4
32	Cc1cc(C)n2nc(SCC(=O)Nc3ccc(F)cc3)nc2n1	.	.	-1
37	CCOC(=O)C1=C(C)N=C2SCCC(=O)N2C1c1cc(Br)ccc1OC (stereo unspecified)	i	i	1

no.	VCAM-1 inhibition	FPRL1 binder
2	i	-1
11	.	7
12	.	0
14	.	-3
20	.	2
25	i	3
26	.	0
29	i	0
32	.	-2
37	i	-5

no.	molecule	VCAM-1 down imaging	VCAM-1 up imaging	FPR binder
39	O=C(NCc1ccccc1)c1cc(S(=O)(=O)N2CCC3(CC2)OCCO3)ccc1F	.	.	-2
42	Cc1ccc(Cn2nnc3c(=O)[nH]c(C4CCN(S(=O)(=O)c5ccc(F)cc5)CC4)nc32)cc1	i	i	-2

no.	VCAM-1 inhibition	FPRL1 binder
39	.	4
42	i	10

(cont.)
no.	molecule	VCAM-1 down imaging	VCAM-1 up imaging	FPR binder
49	CCOC(=O)CSc1nnc(CNC(=O)c2ccc(S(=O)(=O)N3CCCC3)cc2)n1C	i	i	1
50	N#CC1=C(N)C(C#N)(C#N)[C@H](c2ccsc2)[C@H]2COCC=C12	i	i	15
51	Cc1ccc2oc(=O)c3cc(C(=O)N4CCN(c5ncccn5)CC4)sc3c2c1	.	.	8
52	CS(=O)(=O)N1CCCC(C(=O)NCc2ccc(F)cc2)C1 (stereo unspecified)	.	.	2
53	CC(=O)Nc1c(-c2ccc(F)cc2)nc2ccccn12	i	i	7
54	CCn1c(=O)cc(OCC(=O)Nc2ccc3c(c2)OCCO3)c2ccccc21	.	.	-4
55	CCOC(=O)N1CCN(C(=O)CCCn2c(=O)[nH]c3ccccc3c2=O)CC1	.	.	-3
56	O=C(CCn1nc(-c2ccccc2)ccc1=O)N1CCOCC1	.	.	0

no.	VCAM-1 inhibition	FPRL1 binder
49	i	-3
50	i	8
51	.	6
52	.	-1
53	i	1
54	.	-5
55	.	4
56	.	-3

(next part)
no.	molecule	VCAM-1 down imaging	VCAM-1 up imaging	FPR binder
57	O=C(c1ccc(Cl)cc1Cl)N1CCC(c2nc3c(nnn3Cc3ccco3)c(=O)[nH]2)CC1	.	.	-14
58	O=C(COc1ccccc1)N1CCN=C1SCc1cccnc1	.	.	-1
59	Cc1nc2ccc(S(=O)(=O)NC(C(=O)Nc3nccs3)C(C)C)cc2s1 (stereo unspecified)	i	i	9
60	COc1cc(NC(=O)c2cc(-c3ccco3)on2)c(OC)cc1Cl	.	.	-4
61	COc1cccc(C2CC(=O)Nc3c2c(=O)n(C)c(=O)n3C)c1OC (stereo unspecified)	i	i	-1
62	Cc1ccc(NC(=O)CCC(=O)OCC(F)(F)C(F)F)cc1	i	i	-6
63	O=C(COc1ccc(Cl)cc1)NCc1nnc(SCC(=O)NCc2ccc3c(c2)OCO3)o1	.	.	2
64	COc1ccc(OC)c(-c2cc(C(=O)NCCCn3ccnc3)no2)c1	.	.	-3

no.	VCAM-1 inhibition	FPRL1 binder
57	.	-9
58	.	-3
59	i	0
60	.	-2
61	i	5
62	i	4
63	.	-4
64	.	9

Remaining list, next part
no.	molecule	VCAM-1 down imaging	VCAM-1 up imaging	FPR binder
65	COC(=O)c1ccccc1NC(=O)Nc1cccs1	i	i	-1
66	Cn1cccc1Cc1nnc(SCC(=O)Nc2ccc3c(c2)OCO3)n1CCc1ccccc1	.	.	9
67	Fc1ccc(C(c2ccc(F)cc2)N2CCN(C/C=C/c3ccccc3)CC2)cc1	i	i	3
68	CC(=O)SCC(=O)N=c1sc2cc(F)ccc2n1C	i	i	56*
69	COc1cccc(C(=O)NC(C)C(c2cccs2)N2CCN(C)CC2)c1 (stereo unspecified)	.	.	-3
70	CCN(CC)c1ccc(NC(=O)C2CCCN(S(=O)(=O)c3cnc[nH]3)C2)c(C)c1 (stereo unspecified)	.	.	0
71	Cc1ccc(Cc2c(C)nc3nc(SCC(=O)NCc4ccco4)nn3c2C)cc1	.	.	13
72	COc1cccc(NC(=O)CSc2nnc(Cc3cccn3C)n2-c2ccc(F)cc2)c1	i	i	-5

no.	VCAM-1 inhibition	FPRL1 binder
65	i	-2
66	.	4
67	i	-5
68	i	34*
69	.	-1
70	.	-2
71	.	-4
72	i	-4

(continued)
no.	molecule	VCAM-1 down imaging	VCAM-1 up imaging	FPR binder
73	COc1cccc2cc(C(=O)n3ccc(C)n3)c(=O)oc12	i	i	10
74	COc1ccc(-c2cc(C(=O)NCc3cccnc3)no2)cc1	.	.	5
75	CCOc1ccc(OCC)c(S(=O)(=O)NCc2ccc3c(c2)OCO3)c1	.	.	0
76	O=C(O)c1cccc(-n2cccc2/C=N/O)c1	.	.	8
77	O=C(NCc1n[nH]c(=S)n1-c1ccc(F)cc1)c1ccc(S(=O)(=O)N2CCCC2)cc1	.	.	-2
78	COc1ccc(S(=O)(=O)N2CCCC(C(=O)NCc3ccccn3)C2)cc1 (stereo unspecified)	i	i	-3
79	Cc1cc(=O)oc(C)c1C(=O)NCc1ccc(F)cc1	.	.	-13
80	O=C1CSc2ccccc2N1Cc1ccc(F)cc1	.	.	2
81	CCCN(CCC)C(=O)COc1cc(=O)n(CC)c2ccccc12	.	.	2

no.	VCAM-1 inhibition	FPRL1 binder
73	i	1
74	.	-2
75	.	-5
76	.	7
77	.	-1
78	i	-7
79	.	3
80	.	4
81	.	1
